Source: PubChem BioAssay (Southern Research Institute)
Mtb growth: Mycobacterium tuberculosis H37Rv growth inhibition, cell based, confirmatory dose response (AID 1949) | inhibition, % at 10 µg/mL, or IC50 in µg/mL where a hit was titrated | most inactive calls were filed without a number and no value below 0 was filed | hit rate 1.6% among 100,000;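 active = confirmed in a dose series; inconclusive = about 50% or more but not retested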;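 also: bacteria grown 7 days with compound before Alamar blue readout; 0% = untreated bacteria and 100% = reference antibiotic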
Numbers without * were called inactive; i = inactive; ? = inconclusive; & = joins results of further samples. A portion of the library. The share of hits here may be higher or lower than overall.

The opening six compounds as a preview:
SMILES	Mtb growth
O=C(c1ccccc1)c1ccc(OCCCN2CCCC2)cc1	i
O=C1CC(c2ccccc2)CN1C(=O)c1cccc(Br)c1 (stereo not given)	i
Cc1ccc(C(=O)Nc2ccc(C(=O)Nc3nccs3)cc2)cc1	i
O=C(CN(c1cccc(Cl)c1)S(=O)(=O)c1ccc(Cl)cc1)Nc1ccccc1	5.8%
O=C(CSc1nnc(CCCN2C(=O)c3cccc4cccc(c34)C2=O)n1-c1ccccc1)NCc1ccco1	i
COc1ccc(CCNC(=S)NNC(=O)C(C)Oc2ccc3c(c2)OCO3)cc1OC (stereo not given)	i

The listing (from the top)
SMILES	Mtb growth
O=C(c1ccccc1)c1ccc(OCCCN2CCCC2)cc1	i
O=C1CC(c2ccccc2)CN1C(=O)c1cccc(Br)c1 (stereo not given)	i
Cc1ccc(C(=O)Nc2ccc(C(=O)Nc3nccs3)cc2)cc1	i
O=C(CN(c1cccc(Cl)c1)S(=O)(=O)c1ccc(Cl)cc1)Nc1ccccc1	5.8%
O=C(CSc1nnc(CCCN2C(=O)c3cccc4cccc(c34)C2=O)n1-c1ccccc1)NCc1ccco1	i
COc1ccc(CCNC(=S)NNC(=O)C(C)Oc2ccc3c(c2)OCO3)cc1OC (stereo not given)	i
CN(c1cccc(NC(=O)c2ccco2)c1)S(C)(=O)=O	i
COc1ccccc1C(=O)N/C(=C/c1ccccc1)C(=O)NCCOC(C)=O	i
Cn1c(SCC(=O)c2ccccc2)nnc1-c1sc2ccccc2c1Cl	i
Cc1ccc(-c2ccc(OC(=O)COc3ccccc3[N+](=O)[O-])cc2)cc1	i
O=C(CSc1nnc(-c2ccccc2)o1)Nc1ccccc1[N+](=O)[O-]	i
O=C(O)CC(NCc1ccccc1)C(=O)Nc1nc(-c2ccccc2)cs1 (stereo not given)	i
COc1cc(CN(C(=O)c2sc3ccccc3c2Cl)C2CCCCC2)ccc1OCC(N)=O	5.4%
COc1ccc(-c2nnc(NC(=O)c3ccc(C)o3)s2)cc1	i
O=C(CC(NCCCN1CCOCC1)C(=O)O)Nc1cccc(Cl)c1 (stereo not given)	i
COc1cccc(N2CCN(C(=S)Nc3ccc(Cl)cc3Cl)CC2)c1	i
CCN(CC)C(=O)C1=C(C)NC(=S)NC1c1ccc(OC)cc1 (stereo not given)	i
CCN1CCCC1CNCc1ccc(OC)cc1 (stereo not given)	i
CCOC(=O)Cn1cc(/C=C/c2cc(C(F)(F)F)[nH]c(=O)n2)c(-c2ccc(OC)cc2)n1	i
Cc1ccc(NC(=O)C2C3C=CC(C3)C2C(=O)O)c(Br)c1 (stereo not given)	i
Cc1ccc(-c2csc3ncn(CC(=O)Nc4ccccc4C(C)C)c(=O)c23)cc1C	5.9%
Cc1ccc(CC(=O)Nc2nc3ccc(C)cc3s2)cc1	i
Cc1ccc(C)c(NS(=O)(=O)c2cc(C)ccc2C)c1	1.1%
O=C(O)C1CC(=O)N(c2ccccc2Cl)C1 (stereo not given)	i
CC(=O)Nc1ccc(S(=O)(=O)NC2CCS(=O)(=O)C2)cc1 (stereo not given)	i
c1ccc(Cn2c3ccccc3n3c(SCc4nc5ccccc5[nH]4)nnc23)cc1	i
CCn1c(SCC(=O)Nc2nc(=O)c3ccccc3s2)nc2ccccc2c1=O	2.4%
Clc1cc(Br)ccc1OCCCn1ccnc1	15µg/mL*
COc1ccccc1-c1nc(C#N)c(N2CC(C)OC(C)C2)o1 (stereo not given)	i
CCOC(=O)CCc1c(C)c2ccc(OCc3c(F)cccc3F)c(C)c2oc1=O	i
C=CCc1cccc(C)c1OCCCCN1CCCC(C)C1 (stereo not given)	i
CC(NC(=O)c1cccs1)c1ccc2c(c1)OCO2 (stereo not given)	i
CCOc1cccc(-c2cc(C(=O)N3CCN(c4ccccc4OCC)CC3)c3ccccc3n2)c1	32.1%
O=C(Nc1ccc(Cl)cc1C(F)(F)F)c1cccc([N+](=O)[O-])c1	i
Cc1cccc(Oc2ccc(NC(=O)C3CCC(N4C(=O)c5ccccc5C4=O)CC3)cc2)c1 (stereo not given)	i
CCOc1cc(C2NC(=S)NC(c3ccccc3)=C2C(=O)c2ccccc2)c(Br)cc1OCC#N (stereo not given)	0.7%
Cn1c(SCc2ccc(Cl)cc2Cl)nnc1-c1cnccn1	i
Cc1ccc(NC(=O)CSc2nnc(-c3ccccc3)o2)cc1C	i
Cc1cccc(-c2noc(-c3cccc4ccccc34)n2)c1	i
COc1ccc(NC(=O)OCC(C)C)cc1OC	i
C=CCOc1ccc(C(=O)Nc2sc3c(c2C(=O)NCCCOC)CCCC3)cc1	i
CCN(CC)c1ccc(NS(=O)(=O)c2ccc(Br)cc2)cc1	i
Cc1cccc(OCC(=O)NC(=S)Nc2ccc3c(c2)OCCO3)c1C	i
COC(=O)Cc1cc(=O)oc2c(OC)c(OC)ccc12	i
CC(Oc1cccc(Cl)c1)C(=O)NC(C)c1ccccc1 (stereo not given)	4.6%
O=[N+]([O-])c1ccc(CSc2nnc(-c3ccc(Cl)cc3)n2-c2ccc(F)cc2)cc1	i
O=C(O)CCc1nn2c3ccccc3n(Cc3ccccc3)c2nc1=O	i
CCOc1ccc(-c2c(C)n([O-])c(C)c(-c3ccc(F)cc3)[n+]2=O)cc1	1.3%
O=C(CN1C(=O)c2cccc3cccc(c23)C1=O)NCCO	i
COc1ccc2cc(Br)ccc2c1CC(=O)N(C)C1CCN(C)CC1	i
Cc1ccc(S(=O)(=O)NCCSC2CCCCC2)cc1[N+](=O)[O-]	i
O=C(CCCCC(=O)Nc1ccc(Cl)cc1F)Nc1ccc(Cl)cc1F	i
CC(C)=CCOc1cc2oc(=O)cc(C)c2cc1Cl	i
CCC(=O)Nc1cccc(NC(=O)c2ccc(C#N)cc2F)c1	6.8%
O=C(Nc1ccc(C(=O)N(C2CCCCC2)C2CCCCC2)cc1)c1ccccc1Cl	19.2%
N#Cc1ccc(C(=O)NC2CCCC2)c(F)c1	i
Cc1ccccc1NS(=O)(=O)c1ccc(NC(=O)c2ccccc2Cl)cc1	i
COc1ccc(Cl)cc1NC(=O)C(OC)c1ccccc1 (stereo not given)	i
COCCCNCCOc1cc(C(C)C)ccc1C	i
Cc1ccc(C)c(N(Cc2cc3ccccc3[nH]c2=O)C(=O)c2cccnc2)c1	i

(more compounds)
SMILES	Mtb growth
CN1C(=O)c2ccc(NC(=S)NC(=O)C(c3ccccc3)c3ccccc3)cc2C1=O	i
COc1cc2c(cc1NC(=S)NC(=O)c1c(-c3ccccc3)noc1C)oc1ccccc12	6.6%
CS(=O)(=O)N(CC(=O)Nc1ccc(OCc2ccccc2)cc1)c1cccc(F)c1	i
COc1cc(OC)c(C2=NOC(C(=O)NCc3ccco3)C2)cc1Cl (stereo not given)	i
O=C1CSC2(CN3CCC2CC3)N1 (stereo not given)	1.5%
O=C1CC(c2nc3ccccc3n2Cc2ccc(F)cc2)CN1c1cccc(C(F)(F)F)c1 (stereo not given)	5.8%
O=C(COc1ccc(C(=S)N2CCOCC2)cc1)N1CCOCC1	i
O=C(COc1ccc(Cl)cc1Br)Nc1cccc([N+](=O)[O-])c1	i
Cc1nn(CC(=O)Nc2ccccc2)c(=O)c2ccccc12	i
Cc1ccc([N+](=O)[O-])cc1NC(=O)c1ccc(CN2CCc3ccccc3C2)cc1	20.3%
CC(C)(C)C(=O)Nc1ccc(CN2CCCCC2)cc1	i
CC(NC(=O)CN(C)S(=O)(=O)c1ccc(Cl)cc1)c1ccccc1 (stereo not given)	i
Cc1ccc(CN(CC(=O)Nc2ccc(F)cc2)S(=O)(=O)c2ccc(Cl)cc2)cc1	i
Cc1ccccc1NC(=O)CSc1nc(N)c2c3c(sc2n1)COC(C)(C)C3	?
Clc1ccc(-n2c(SCc3c(Cl)cccc3Cl)nnc2-c2ccncc2)cc1	2.9%
CCC(CO)NS(=O)(=O)c1ccc(OC)c(-c2nnc3c4ccccc4c(C)nn23)c1 (stereo not given)	i
COc1ccc(Br)cc1C(=O)NC(=S)Nc1c(C)n(C)n(-c2ccccc2)c1=O	i
CN(C)c1nc(N(C)C)nc(N2CC(=O)N(c3ccc(Cl)cc3)C2=N)n1	i
O=C1CC(N2CCN(c3ccc(S(=O)(=O)N4CCCC4)cc3)CC2)C(=O)N1c1ccc(F)cc1 (stereo not given)	i
CC(N)Cc1c[nH]c2c1ccc1ccccc12 (stereo not given)	18.9%

6 compounds from above, ordered by count of non-hydrogen atoms, smallest number first.
SMILES	Mtb growth
O=C1CSC2(CN3CCC2CC3)N1 (stereo not given)	1.5%
O=C(COc1ccc(Cl)cc1Br)Nc1cccc([N+](=O)[O-])c1	i
CC(NC(=O)CN(C)S(=O)(=O)c1ccc(Cl)cc1)c1ccccc1 (stereo not given)	i
Cc1ccccc1NC(=O)CSc1nc(N)c2c3c(sc2n1)COC(C)(C)C3	?
Cc1ccc(CN(CC(=O)Nc2ccc(F)cc2)S(=O)(=O)c2ccc(Cl)cc2)cc1	i
CCC(CO)NS(=O)(=O)c1ccc(OC)c(-c2nnc3c4ccccc4c(C)nn23)c1 (stereo not given)	i

Remaining list, next part:
SMILES	Mtb growth
Cn1c(=O)c2c(ncn2CC(=O)Nc2ccccc2C(F)(F)F)n(C)c1=O	i
CCSCC(=O)N1CCN(c2nnc(-c3ccccc3)c3ccccc23)CC1	14.5µg/mL*
NC(=O)C1CCN(C2CC(=O)N(c3cccc(C(F)(F)F)c3)C2=O)CC1 (stereo not given)	i
COC(=O)CCC(C#N)(CCC(=O)OC)c1ccc(OC)c(OC)c1	i
COc1cc(C2C3=C(CC(C)(C)CC3=O)NC3=C2C(=O)CC(C)(C)C3)ccc1OC1CCCC1	2.4%
O=c1[nH]c(=O)n(C2CCCO2)cc1Br (stereo not given)	1.1%
O=C(NC1CC1)c1cc(C(=O)NC2CC2)cc(C(=O)NC2CC2)c1	i
COC(=O)c1c(NC(=O)c2csc3c2CCCC3)sc(C(=O)Nc2ccccc2C)c1C	47.0%
COc1cc(C(=O)Nc2ccc(S(=O)(=O)Nc3ccccn3)cc2)cc(OC)c1OC	i
Cc1ccc(/C=C/C(=O)O)cc1S(=O)(=O)NCCCO	i
Cc1cccc(-n2c(N)c(Br)c(=O)[nH]c2=O)c1C	i
CC(=O)N1CCC(C(=O)NNC2CC(=O)N(c3ccc(F)cc3)C2=O)CC1 (stereo not given)	i
CCOc1ccccc1NC(=O)c1ccccc1N(C)S(=O)(=O)c1ccc(C)cc1	1.4%
CC(=O)Nc1ccc(Br)c(C(F)(F)F)c1	i
Cn1c(=O)c2c(nc(N3CCOCC3)n2CCN)n(C)c1=O	i
Cc1nnc(SCC(=O)Nc2cccc(C)c2C)s1	i
CC(=O)Nc1ccccc1-c1nnc(SCc2ccccc2)[nH]c1=O	i
N#C/C(=C\c1ccccc1I)S(=O)(=O)c1ccccc1	i
Cc1ccc(C(=O)CN2C3=NCCCN3c3ccccc32)cc1	i
Cc1c(NC(=O)c2cncc(Br)c2)cccc1-c1nc2cc(Cl)ccc2o1	0.8%

Reprinted from above for reference:
SMILES	Mtb growth
Cc1ccc(/C=C/C(=O)O)cc1S(=O)(=O)NCCCO	i
Cc1cccc(-n2c(N)c(Br)c(=O)[nH]c2=O)c1C	i
CC(=O)N1CCC(C(=O)NNC2CC(=O)N(c3ccc(F)cc3)C2=O)CC1 (stereo not given)	i
CCOc1ccccc1NC(=O)c1ccccc1N(C)S(=O)(=O)c1ccc(C)cc1	1.4%

New compounds follow.
SMILES	Mtb growth
O=C(/C=C/C(=O)OCC(F)(F)C(F)F)Nc1cccc(Br)c1	i
COc1cccc(-c2nc(-c3cccnc3)no2)c1OC	0.0%
N/C(=N\OC(=O)c1ccc(Cl)cc1)c1cccnc1	i
COc1cc(SC)ccc1C(=O)Nc1ccccc1C(=O)Nc1cc(C)ccc1C	i
CCOc1cccc(OCCCNCCCOC)c1	i
COc1ccc(OC)c(NC(=O)CCN2CCN(C)CC2)c1	i
Cc1cc(C(=O)Nc2ccccc2C(=O)O)ccc1NC(=O)COc1ccccc1Cl	i
CCCC(=O)Nc1ccccc1NC(=O)C(C)Oc1ccccc1 (stereo not given)	i
Nc1c(C(=O)Nc2ccc(OC(F)(F)F)cc2)sc2nc(-c3ccncc3)ccc12	i
CC1CCN(C(=O)NC(C(F)(F)F)C(F)(F)F)CC1	1.8%
CCOc1ccc(NC(=O)c2cccc3ccccc23)c([N+](=O)[O-])c1	1.6%
CCOC(=O)C1CCN(C(=O)Cn2cc(C(=O)OC)c3ccccc32)CC1	i
Cc1ccc2[nH]c3c(c2c1)CCCC3NCCO (stereo not given)	32.5%&11.7%
Cc1ccccc1-c1cc(C(=O)NCc2ccc(S(N)(=O)=O)cc2)c2ccccc2n1	i
NS(=O)(=O)c1ccc(CCNC2CC(=O)N(Cc3ccccc3)C2=O)cc1 (stereo not given)	i
CC(C)(O)C(=O)NNC(=S)NC1CCCCC1	i
COc1ccc(-n2c(SCC(=O)c3ccccc3)nnc2-c2cccnc2)cc1	i
Cc1ccc(OCC(=O)Nc2ccc(Cl)c(-c3nc4ncccc4o3)c2)cc1C	43.9%
COC(=O)c1ccc(COC(=O)c2ccc(OC)cc2)cc1	?
Cc1occc1C(=O)NCCc1ccc(Cl)cc1	1.9%
CCOCCCNC(=O)C1(c2ccccc2)CCCC1	i
N#Cc1cccc(NC(=O)CN2C(=O)c3ccccc3C2=O)c1	i
CC(CC(=O)Nc1ccc2c(c1)OCCO2)c1ccccc1 (stereo not given)	i
Cc1ccc(C)c(OCC(=O)Nc2cccc([N+](=O)[O-])c2)c1C	i
COC(=O)c1ccc(COC(=O)c2cccc(C)c2)cc1	i
CS(=O)(=O)N(CC(=O)N1CCCCC1)c1cc(C(F)(F)F)ccc1Cl	i
O=c1nc(-c2ccccc2Cl)c2cc(F)ccc2[nH]1	i
CCOC(=O)N1CCN(C(=O)C2CCN(S(=O)(=O)c3cc(Cl)ccc3Cl)CC2)CC1	i
COc1ccc(NC(=S)Nc2ncccc2C)c(OC)c1	i
Cc1ccc(C(=O)NC(Nc2ccc(F)cc2)C(Cl)(Cl)Cl)cc1 (stereo not given)	5.3%
Cc1cccc(NC(=O)c2cccc(OC(C)C)c2)c1C	i
CCOc1ccccc1NC(=O)c1c(NCc2cccs2)sc2c1CCCCC2	i
CNC(=S)Nc1ccc([N+](=O)[O-])cc1	i
CC(=O)Nc1ccc(N/C(=N\S(=O)(=O)c2ccccc2)c2ccccc2)cc1	i
CCOC(=O)CCc1nc2ccc(O)cc2[nH]1	i
Cc1nnc2sc(-c3ccco3)nn12	i
